Screens as filed in PubChem.
A1 inh = caspase 3/7 activation in MEF A1-2A-BIM cells, primary screen, A1 inhibitor project, cell-based, luminescence, HTS; Caspase-Glo 3/7 luminescence, 3 h; percent of clofoctol response, vehicle zero; caspase activation, % (concentration not given with the values); 330,000 tested, 0.066% active; AID 2462, 2010;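 active means over half of replicate activation scores above 10%, or exactly half above 10 with the replicate mean above 10; inconclusive means replicate mean below 10 yet half the replicates above 10; inactive means over half of replicates below 10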;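 further: wells of about 30 µL received 50 nL stock; many hits fall short of the cut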
RanGTP-Impb inh = inhibitors of RanGTP-importin-beta interaction, primary screen, biochemical, FRET, CFP-Ran, YFP-importin-beta, homogeneous | 300,000 tested, 1.1% active | cell-free CFP-Ran/YFP-importin-beta FRET ratio | AID 2216, 2009 | inhibition, % (concentration not given with the values);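 active means most replicates above 15%; inconclusive means exactly half above 15%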;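 further: 0% = DMSO wells and 100% = Ran loaded with GDP instead of GTP; wells of about 40 µL received 100 nL stock; the first replicate is given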
T cruzi inh = inhibitors of intracellular T. cruzi growth, primary screen, luminescence, NIH3T3 host cells; inhibition, % (concentration not given with the values); 300,000 tested, 1.4% active; T. cruzi beta-gal in NIH3T3, 90 h;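 active means mean inhibition across valid replicates above about 55%, limit read from the data; inconclusive means mean below that limit but half or more replicates reach it; inactive means mean below it, under half of replicates reach it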;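 further: signal also drops with host cell toxicity which is not excluded here; 0% = plate median of DMSO wells and 100% = zero luminescence signal; higher percent means less beta-gal luminescence so fewer parasites; stock transfer was 50 nL into about 50 µL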
LANA-H2B inh = blockers of LANA interaction with H2A/H2B – biochemical, FP readout, HTS, primary screen; cell-free LANA-H2A/H2B peptide, fluorescence polarization; Protein LANA1 (Human herpesvirus 8 type P (isolate GK18)), Q9QR71; inhibition, % (test concentration not listed); 320,000 tested, 0.6% active; in the data active means inhibition mostly above about 10%, no sharp cut-off; inactive means mostly below about 6.7%;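 further: stock transfer was 7.5 nL into about 10 µL; 0% = median of vehicle wells and 100% = median of positive control wells; one replicate is shown; the record names a cut of 25% in any replicate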
Target sequence (Q9QR71 whole entry, looked up): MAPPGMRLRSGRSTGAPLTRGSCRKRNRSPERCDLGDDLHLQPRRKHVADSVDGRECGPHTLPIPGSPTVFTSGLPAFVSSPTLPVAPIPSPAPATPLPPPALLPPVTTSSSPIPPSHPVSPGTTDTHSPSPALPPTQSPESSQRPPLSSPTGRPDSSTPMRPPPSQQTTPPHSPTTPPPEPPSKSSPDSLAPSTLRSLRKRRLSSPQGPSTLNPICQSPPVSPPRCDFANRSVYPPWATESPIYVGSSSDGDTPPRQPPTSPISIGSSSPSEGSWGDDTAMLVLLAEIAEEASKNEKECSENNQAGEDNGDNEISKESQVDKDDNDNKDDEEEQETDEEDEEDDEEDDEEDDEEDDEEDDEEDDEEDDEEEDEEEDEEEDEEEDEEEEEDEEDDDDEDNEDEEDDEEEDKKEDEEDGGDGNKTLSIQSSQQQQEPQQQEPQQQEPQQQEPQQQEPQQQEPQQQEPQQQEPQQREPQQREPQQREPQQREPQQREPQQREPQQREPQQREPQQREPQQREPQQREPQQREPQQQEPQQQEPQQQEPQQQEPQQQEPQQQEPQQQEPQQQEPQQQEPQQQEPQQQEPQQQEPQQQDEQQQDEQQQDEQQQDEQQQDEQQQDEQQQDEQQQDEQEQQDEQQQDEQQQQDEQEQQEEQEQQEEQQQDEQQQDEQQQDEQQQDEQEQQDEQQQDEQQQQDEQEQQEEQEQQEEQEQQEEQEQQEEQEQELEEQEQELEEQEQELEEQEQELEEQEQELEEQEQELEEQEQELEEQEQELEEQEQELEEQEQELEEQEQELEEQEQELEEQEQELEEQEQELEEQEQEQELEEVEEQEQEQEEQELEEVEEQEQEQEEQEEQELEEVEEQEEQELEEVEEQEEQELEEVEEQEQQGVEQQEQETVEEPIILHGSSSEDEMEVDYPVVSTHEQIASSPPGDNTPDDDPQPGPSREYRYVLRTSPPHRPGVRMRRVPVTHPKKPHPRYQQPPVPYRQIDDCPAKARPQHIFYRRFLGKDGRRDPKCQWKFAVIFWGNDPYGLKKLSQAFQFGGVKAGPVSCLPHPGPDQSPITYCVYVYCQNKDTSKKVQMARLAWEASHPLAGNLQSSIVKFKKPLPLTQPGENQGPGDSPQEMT
Beta apoptosis = inhibitors of cytokine-induced beta cell apoptosis, primary screen, luminescence. INS-1E cytokine-induced death, ATP luminescence, 48 h; percent of positive-control rescue, neutral wells zero. AID 435005, 2010. protection from apoptosis, % (concentration not given with the values). 300,000 tested, 0.8% active;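 active means all replicates at 75% or more, or half of them and the mean; inconclusive means half reach 75% but not the mean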;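 further: 0% = cytokine-treated negative control wells and 100% = positive control rescue; higher means more ATP so stronger rescue from cytokine killing; wells of about 40 µL received 100 nL stock; the first replicate is given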
Calb FLC = C. albicans growth inhibition with fluconazole, primary screen, CaCi-2 strain, Alamar Blue fluorescence. C. albicans CaCi-2 (fluconazole-resistant clinical isolate) + fluconazole, 48 h. growth inhibition, % (concentration not given with the values). 300,000 tested, 0.57% active. AID 1979, 2009;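 active means most replicates above 75%; inconclusive means exactly half above 75%; inactive means most below 75%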;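 further: all wells also contain fluconazole at 8 µg/ml as a sub-toxic cotreatment; 0% = median of DMSO wells and 100% = median of geldanamycin control wells; wells of about 8 µL received 7.5 nL stock; the first replicate is given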
MLL AF4-AF9 inh = inhibitors of AF4 peptide binding to AF9, primary screen, biochemical, AlphaScreen, biotin-AF4 peptide, FLAG-AF9, single point; Protein AF-9 (Homo sapiens), P42568; inhibition, % at 10 µM; 350,000 tested, 0.47% active;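 active means every replicate reaching a set inhibition limit, whatever the replicate mean, cut at about 25% in these data; inconclusive means mean inhibition reaches that limit but some replicates miss it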;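 further: 0% = plate neutral control median and 100% = total signal loss; the record names both 10 and 1 µM as test concentration; the first replicate is given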
Vif A3G = inhibitors of Vif binding to APOBEC3G peptide, primary screen, biochemical, TR-FRET, GST-Vif 1-94, biotin-A3G peptide, dose response retest (AID 1117319). Virion infectivity factor (Human immunodeficiency virus type 1 group M subtype B (isolate …. inhibition, %; hits with a dose series show IC50 in µM. 260,000 tested, 0.57% active. TR-FRET GST-Vif / biotin-A3G peptide binding; higher % means a stronger effect; test concentration not given here; strong numbers were not always called active;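 active means above the screen mean plus three standard deviations and confirmed in dose response; inconclusive means results disagree or hit not tested in dose response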;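 further: Vif residues 1-94 fused to GST binding biotinylated APOBEC3G peptide 110-148; 0% = full assay without inhibitor and 100% = GST in place of GST-Vif; retest series ran down from 100 µM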
An asterisk follows results filed as active. Random draw from the library; any-hit rate near 4.3%.

`CC(C)CC(=O)O/N=C1\C(=O)N(Cc2ccc(Cl)cc2)c2ccc([N+](=O)[O-])cc21` gave A1 inh 0.4, RanGTP-Impb inh 9.2, T cruzi inh 58*, LANA-H2B inh 1.3, Beta apoptosis 22, Calb FLC -31 and Vif A3G 14%.
`COc1cc(OC)cc(C(=O)NCCCn2ccnc2)c1` gave A1 inh 1.1, RanGTP-Impb inh 1.4, T cruzi inh -5, LANA-H2B inh -0.3, Beta apoptosis 3, Calb FLC 2, MLL AF4-AF9 inh -0.4 and Vif A3G 0%.
For CN(CCO)S(=O)(=O)c1ccc2c(c1)C(=NN)c1cc(S(=O)(=O)N(C)CCO)ccc1-2 the results were A1 inh 1.2, RanGTP-Impb inh 1.6, T cruzi inh -3, LANA-H2B inh -5.5, Beta apoptosis -2, Calb FLC -7, MLL AF4-AF9 inh -3.5 and Vif A3G -6%.
`COc1ccccc1-c1sc2ccccc2c1-c1ccc(O)cc1` gave A1 inh 0.4, LANA-H2B inh 0.5, Beta apoptosis 6, MLL AF4-AF9 inh -0.1 and Vif A3G -5%.
Screening CCn1c(COc2ccccc2C)nnc1SCC(=O)NCc1ccccc1 returned A1 inh 1.0, RanGTP-Impb inh -0.3, T cruzi inh 9, LANA-H2B inh 8.3, Beta apoptosis 2, Calb FLC -5 and Vif A3G 21%.
`Cc1cc(C)n(S(=O)(=O)/C=C/c2ccccc2)n1` gave A1 inh -0.4, RanGTP-Impb inh -0.9, T cruzi inh -2, LANA-H2B inh 2.2, Beta apoptosis -11, Calb FLC -19 and Vif A3G inconclusive.
`O=C(Nc1ccc(F)cc1)C1CCN(S(=O)(=O)c2cccs2)CC1` gave A1 inh 0.7, RanGTP-Impb inh 3.4, T cruzi inh 8, LANA-H2B inh -1.4, Beta apoptosis 4, Calb FLC -5 and MLL AF4-AF9 inh 3.5.
COC(=O)c1sc(N2C(=O)C(O)=C(C(=O)c3ccc(C)o3)C2c2cc(OC)ccc2OC)nc1C (stereo not given) was read as A1 inh 0.4, RanGTP-Impb inh -0.6, T cruzi inh -1, LANA-H2B inh 3.9, Beta apoptosis 1, Calb FLC 68 and MLL AF4-AF9 inh 3.3.
Screening Cc1cc(C)c2c(SC(C)C)nc(N)nc2n1 returned A1 inh 0.1, RanGTP-Impb inh inconclusive, T cruzi inh 4, LANA-H2B inh 6.1, Beta apoptosis -3, Calb FLC 10, MLL AF4-AF9 inh 1.3 and Vif A3G 4%.
`CCC(C)Sc1nc2c([nH]c3ccccc32)c(=O)n1C` (stereo not given) gave A1 inh -0.4, RanGTP-Impb inh -2.4, T cruzi inh 15, LANA-H2B inh 6.3, Beta apoptosis -5, Calb FLC -6, MLL AF4-AF9 inh 2.2 and Vif A3G 7%.
For CCc1ccc(NC(=S)N(CCN2CCOCC2)Cc2ccccc2F)cc1 the results were A1 inh 0.9, RanGTP-Impb inh 0.7, T cruzi inh -19, LANA-H2B inh -5.8, Beta apoptosis 1, Calb FLC -8, MLL AF4-AF9 inh -0.3 and Vif A3G -11%.
Screening Cc1c(C(=O)OCC(=O)Nc2c(C)n(C)n(-c3ccccc3)c2=O)oc2ccccc12 returned A1 inh 0.6, RanGTP-Impb inh -2.5, T cruzi inh -16, LANA-H2B inh -3.6, Beta apoptosis 5, Calb FLC -11, MLL AF4-AF9 inh 0.7 and Vif A3G 5%.
For CC(=O)Oc1ccc(N(C(C)=O)S(=O)(=O)c2cccs2)c2ccccc12 the results were A1 inh 0.0, RanGTP-Impb inh -3.8, T cruzi inh -5, LANA-H2B inh 2.5, Beta apoptosis 93*, Calb FLC 51 and Vif A3G 18%.
`CC(=O)Nc1ccc(S(=O)(=O)C(C#N)c2nc3ccccc3nc2NCCN2CCOCC2)cc1` (stereo not given) gave A1 inh 0.2, RanGTP-Impb inh -3.3, T cruzi inh 1, LANA-H2B inh 3.8, Beta apoptosis -1, Calb FLC -3, MLL AF4-AF9 inh -2.6 and Vif A3G 3%.
`C=C1CCC(OC(C)=O)C2(C)CCC3C(C)C(=O)OC3C12O` (stereo not given) gave A1 inh 1.0, RanGTP-Impb inh -1.7, T cruzi inh -15, LANA-H2B inh -3.0, Calb FLC -16, MLL AF4-AF9 inh -6.4 and Vif A3G -4%.
Screening CC(=O)NC(=S)Nc1sc2c(c1C(N)=O)CCC(C)C2 (stereo not given) returned A1 inh -0.6, RanGTP-Impb inh 4.1, T cruzi inh 12, LANA-H2B inh -2.1, Beta apoptosis -4, Calb FLC 24, MLL AF4-AF9 inh 1.4 and Vif A3G -3%.
For Cc1ccc(-c2nn(-c3cccc(F)c3)cc2CNCCc2ccncc2)o1 the results were A1 inh 0.3, RanGTP-Impb inh -2.5, T cruzi inh 49, LANA-H2B inh 10.0, Beta apoptosis -2, Calb FLC 5, MLL AF4-AF9 inh 5.9 and Vif A3G 4%.
COCCNC(=O)c1cc2oc3ccccc3c2n1C was read as A1 inh 0.7, RanGTP-Impb inh 1.0, T cruzi inh -1, LANA-H2B inh -5.6, Beta apoptosis -4, Calb FLC 14 and Vif A3G 29%.
Screening CCOc1cc(-c2nc3ccccn3c2NCC2CCCO2)ccc1O (stereo not given) returned A1 inh -0.3, RanGTP-Impb inh 3.6, T cruzi inh -16, LANA-H2B inh 4.0, Beta apoptosis -12, Calb FLC 11 and Vif A3G 26%.
COc1ccc(-n2c(SCC(=O)Nc3ccccc3)nc3c(c2=O)SCC3)cc1 was read as A1 inh 0.3, RanGTP-Impb inh 1.8, T cruzi inh -11, LANA-H2B inh 2.6, Beta apoptosis -2, Calb FLC 1, MLL AF4-AF9 inh -0.1 and Vif A3G 0%.
Cc1nn(CCOc2cccc(Br)c2)c(C)c1[N+](=O)[O-] was read as A1 inh 0.3, RanGTP-Impb inh 0.3, T cruzi inh 2, LANA-H2B inh -1.8, Beta apoptosis -1, Calb FLC -1 and MLL AF4-AF9 inh -0.4.
Screening C[C@@H]1NS(=O)(=O)[C@H]2C[C@@H]3C=C[C@]2(O3)[C@H]1OC(=O)c1ccccc1Br returned A1 inh 0.2, LANA-H2B inh -0.8, Beta apoptosis 2 and MLL AF4-AF9 inh 0.6.
`O=C(Nc1ccccc1SCC1CSc2nc3ccccc3c(=O)n21)c1ccccc1Cl` (stereo not given) gave A1 inh 0.0, RanGTP-Impb inh 1.6, T cruzi inh 9, LANA-H2B inh -3.3, Beta apoptosis 11, Calb FLC -9 and Vif A3G 2%.
Screening Cc1cccc2c(C(=O)Nn3cnnc3)cc(-c3ccccc3Cl)nc12 returned A1 inh -0.2, RanGTP-Impb inh 3.4, T cruzi inh -5, LANA-H2B inh 0.3, Beta apoptosis -3, Calb FLC 4 and MLL AF4-AF9 inh -0.5.
`COc1ccc(S(=O)(=O)N2CCCOC2CNC(=O)C(=O)NCc2ccncc2)cc1` (stereo not given) gave A1 inh -0.2, RanGTP-Impb inh -0.7, T cruzi inh -20, LANA-H2B inh 0.8, Beta apoptosis -3, Calb FLC 5 and MLL AF4-AF9 inh -7.8.
For Cc1cc(C)nc(NS(=O)(=O)c2ccc(NC(=O)C3CC(=O)N(c4ccccc4)C3)cc2)n1 (stereo not given) the results were A1 inh -0.2, RanGTP-Impb inh 4.7, T cruzi inh -2, LANA-H2B inh -2.3, Beta apoptosis -6, Calb FLC 2, MLL AF4-AF9 inh -2.0 and Vif A3G 10%.
`COc1ccc(C(=O)Nc2nnc(S(=O)(=O)N3CCC(C)CC3)s2)cc1OC` gave A1 inh -1.1, RanGTP-Impb inh -1.5, T cruzi inh 7, LANA-H2B inh 1.5, Beta apoptosis -12, Calb FLC 33 and MLL AF4-AF9 inh -2.3.
CC(C)Oc1ccc(C(=O)N2CCCC2C(=O)O)cc1 (stereo not given) was read as A1 inh 0.4, RanGTP-Impb inh 3.3, T cruzi inh -3, LANA-H2B inh 2.4, Beta apoptosis -2, Calb FLC -4 and Vif A3G 1%.
For CCOC(=O)CSc1ccc(C(=O)N2CCN(C)CC2)cc1[N+](=O)[O-] the results were A1 inh 0.3, RanGTP-Impb inh -1.1, T cruzi inh -7, Beta apoptosis 5, Calb FLC 102*, MLL AF4-AF9 inh -1.6 and Vif A3G 6%.
`CCOC(=O)N1CCN(CC(=O)c2ccc(O)c(C)c2O)CC1` gave A1 inh -1.5, RanGTP-Impb inh 1.3, T cruzi inh -3, LANA-H2B inh 4.6, Beta apoptosis 0, Calb FLC 3 and MLL AF4-AF9 inh 0.4.

The final 2 entries of the part above open the next one:
For CCOC(=O)CSc1ccc(C(=O)N2CCN(C)CC2)cc1[N+](=O)[O-] the results were A1 inh 0.3, RanGTP-Impb inh -1.1, T cruzi inh -7, Beta apoptosis 5, Calb FLC 102*, MLL AF4-AF9 inh -1.6 and Vif A3G 6%.
`CCOC(=O)N1CCN(CC(=O)c2ccc(O)c(C)c2O)CC1` gave A1 inh -1.5, RanGTP-Impb inh 1.3, T cruzi inh -3, LANA-H2B inh 4.6, Beta apoptosis 0, Calb FLC 3 and MLL AF4-AF9 inh 0.4.
CCOc1ccc(-c2[nH]ncc2-c2ccc(OC)c(OC)c2)c(O)c1 was read as A1 inh -0.2, LANA-H2B inh -0.5, Beta apoptosis 24 and Vif A3G 0%.
C1CCC(c2nn3c(-c4n[nH]c5c4CCC5)nnc3s2)CC1 was read as A1 inh -0.1, RanGTP-Impb inh 0.4, T cruzi inh 13, Beta apoptosis -1, Calb FLC -7 and Vif A3G 23%.
S=c1nc(SCc2ccccc2)[nH]c2ccccc12 was read as A1 inh -0.5, RanGTP-Impb inh 5.1, T cruzi inh 25, LANA-H2B inh 1.4, Beta apoptosis 3, Calb FLC 35 and MLL AF4-AF9 inh -2.0.
`CCN(CC)C(=O)c1sc(N)c(C(=O)OC(C)C)c1C` gave A1 inh 0.1, RanGTP-Impb inh 2.4, T cruzi inh 3, LANA-H2B inh -2.3, Calb FLC 12 and Vif A3G -8%.
Screening COc1ccc(NC2=NC(=S)N(c3ccc(C)cc3)C23CCCCC3)cc1 returned A1 inh -0.2, RanGTP-Impb inh 2.6, T cruzi inh -14, LANA-H2B inh 1.6, Beta apoptosis -3, Calb FLC -13 and Vif A3G -3%.
Screening CCCNC(=O)c1ccc(N2CCC3(CC2)CC(c2cccc(Br)c2)=NO3)c([N+](=O)[O-])c1 returned A1 inh 1.8, RanGTP-Impb inh 1.1, T cruzi inh 23, LANA-H2B inh -2.7, Beta apoptosis 35, Calb FLC -11 and MLL AF4-AF9 inh 0.1.
For COc1ccc(OC(=O)Nc2ccccc2)cc1 the results were A1 inh -7.5, RanGTP-Impb inh 3.3, T cruzi inh -7, LANA-H2B inh -2.7, Beta apoptosis 6, Calb FLC -10 and Vif A3G -3%.
